Source: PubChem (several laboratories)
PABP FP inh: blocks human PABP binding to poly(A) RNA. P11940. fluorescence polarization. inhibition, % at 35 µM. AID 2014. 290,000 tested, 1% active;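 active means 50% or more with normal probe brightness, or confirmed in later tests; inconclusive means above 50% with abnormal brightness, or retests that disagree; inactive means below 50% or failed in later tests; about a fifth of its hits are not listed in these tables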;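 further: calls also rest on retests at 20 µM and on dose response follow-up; controls were probe without protein and protein plus probe with vehicle; some compounds called inactive have numbers as strong as hits; many hits fall short of the cut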
Target sequence (P11940 whole entry, looked up): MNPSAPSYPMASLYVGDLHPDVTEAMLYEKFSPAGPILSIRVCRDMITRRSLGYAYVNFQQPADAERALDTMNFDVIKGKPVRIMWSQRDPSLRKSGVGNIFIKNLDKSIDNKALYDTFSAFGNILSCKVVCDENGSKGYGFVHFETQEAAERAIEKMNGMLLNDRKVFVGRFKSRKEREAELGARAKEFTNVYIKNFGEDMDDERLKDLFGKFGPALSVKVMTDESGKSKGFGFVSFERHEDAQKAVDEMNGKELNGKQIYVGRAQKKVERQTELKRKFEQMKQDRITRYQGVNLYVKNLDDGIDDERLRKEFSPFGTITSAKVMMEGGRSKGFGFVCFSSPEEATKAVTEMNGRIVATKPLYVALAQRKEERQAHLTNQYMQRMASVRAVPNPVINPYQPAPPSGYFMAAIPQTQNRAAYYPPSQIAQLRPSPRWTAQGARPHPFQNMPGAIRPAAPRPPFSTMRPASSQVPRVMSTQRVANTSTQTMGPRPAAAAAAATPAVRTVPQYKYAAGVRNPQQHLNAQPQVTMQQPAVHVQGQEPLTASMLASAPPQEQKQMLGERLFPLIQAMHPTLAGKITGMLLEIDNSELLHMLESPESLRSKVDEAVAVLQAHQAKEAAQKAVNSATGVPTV
MT1-MMP act inh: MT1-MMP (human) activation inhibition. P50281. HT1080 RFP-PRO-GFP cells, GFP/RFP ratio fluorescence, overnight; percent of plate control window, DMSO zero. GFP/RFP ratio change, % at 20 µM. 360,000 tested, 0.061% active;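 active means GFP/RFP ratio change of at least 30% with cell ATP level not reduced by more than half and red fluorescence within 50% of control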; further: strong numbers were not always called active
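Compound: 20 µM single dose, 1% DMSO / System: HT1080 RFP-PRO-GFP cells / Controls: DMSO and RFP-L50D-GFP cell wells / Read-out basis: GFP/RFP fluorescence ratio / Schedule: overnight compound exposure at 37 °C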
UUG fidelity: modulators of start codon recognition fidelity in yeast | activity score, % at 18.7 µM | S. cerevisiae UUG-firefly luciferase reporter, luminescence/redox ratio | 350,000 tested, 0.13% active;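 active means replicate mean at a twofold rise or more, about +100% in these data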;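 further: firefly luciferase made from a UUG start codon reports start codon fidelity; reporter light over untreated wells divided by growth signal over untreated wells; some hits fall short of that in this replicate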
CSC inhib: blocks cancer stem cells; cancer stem cell-like cells viability, luminescence; inhibition, % at 7.5 µM; 300,000 tested, 1.1% active;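 active means mean at 75% or more and at least half the replicates too; inconclusive means mean and replicates disagree; tested in HMLE shEcad cells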;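 further: 0% = median of negative and 100% = median of positive control wells; the first replicate is given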
HIV Env fusion: HIV envelope-mediated fusion inhibition; 360,000 tested, 1.1% active; inhibition, % at 12.3 µM; HeLa-JRFL Env/CEM21 cell fusion, luciferase;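 active means mean replicate inhibition score of at least 50 and every replicate individually at or above 50; inconclusive means only one of the two criteria met; inactive means mean below 50 and not all replicates reaching 50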;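 further: 0% = plate neutral controls and 100% = maraviroc near 300 nM; one replicate is shown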
Rce1 inhib: blocks yeast Ras-converting enzyme. Q03530. yeast membranes, quenched prenylated peptide cleavage fluorescence. calls only. 290,000 tested, 0.27% active. AID 2563;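 active means fall in fluorescence gain of 50% or more versus controls, with final raw signal at or below 3038400; inconclusive means same 50% fall but final raw signal above 3038400; inactive means fall in fluorescence gain under 50%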;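 further: plate controls were neutral control wells for no effect and wells lacking membranes for full effect; tested at 10 µM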
eIF4H FP inh: inhibitors of RNA binding by human eIF4H; Q15056; eIF4H fluorescence polarization binding assay; inhibition, % at 35 µM; 290,000 tested, 0.94% active;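 active means 50% or more with normal probe brightness, or confirmed in later tests; inconclusive means above 50% with abnormal brightness, or retests that disagree; inactive means below 50% or failed in later tests; about a fifth of its hits are not listed in these tables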;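 further: calls also rest on retests at 20 µM and on dose response follow-up; 0% = protein and probe with vehicle and 100% = probe without protein; strong numbers were not always called active; many hits fall short of the cut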
eIF4H FP inh retest: further read-out of eIF4H FP inh, marked with its call; inhibition, %; compound at 20 µM; confirmation average;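 mean of two retest wells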
PABP FP inh retest: recorded beside PABP FP inh, whose call it bears; inhibition, %; compound at 20 µM; confirmation repeats;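 mean of two retest wells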
MT1-MMP act inh RFP: recorded beside MT1-MMP act inh, whose call it bears; RFP signal change, %; measured here: RFP expression control read;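 0 = vehicle wells; hits needed this value within 50% of zero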
* hit, by the source's call; i = inactive; ? = inconclusive; · = no result given.

SMILES	PABP FP inh	MT1-MMP act inh	MT1-MMP act inh RFP	UUG fidelity	CSC inhib	HIV Env fusion	Rce1 inhib	eIF4H FP inh	others
CN(C1CCS(=O)(=O)C1)S(=O)(=O)c1cccc2nsnc12 (stereo not drawn)	13	5	-1	-1	-4	·	i	3
COc1ccc(-n2c(O)c(/C=N/NS(=O)(=O)c3ccc(C)c([N+](=O)[O-])c3)c3ccccc3c2=O)cc1OC	-20	-45	43	·	-13	-1	·	3
Cc1c(Cl)c(=O)oc2cc(OCC(=O)N3CCCC(C)C3)ccc12 (stereo not drawn)	·	-4	0	-12	-14	-7	·	·
CCCn1c(N)c(C(=O)CSc2nnc(Cc3cccs3)n2C2CC2)c(=O)[nH]c1=O	·	6	-1	-11	·	-12	·	·
CCOCC(=O)Nc1sc2c(c1C(=O)OCC)CCCC2	-1	1	4	-23	-6	·	i	-5
Cc1ccc(CN(C)c2ccc(S(=O)(=O)N3CCCC3)cn2)cc1	·	-1	-12	-1	14	-5	·	·
CC(C)(C)OC(=O)NCCCCCNC(=O)c1[nH]cnc1C(=O)N[C@@H](CCCCNC(=O)OC(C)(C)C)C(=O)OC(C)(C)C	-5	2	-7	-23	12	·	i	21
O=C1NC2(CCCCC2)Oc2ccccc21	-5	4	7	2	14	·	i	8
Cc1c(NC(=O)CN2C(=O)C3C4C=CC(C4)C3C2=O)c(=O)n(-c2ccccc2)n1C (stereo not drawn)	-2	0	2	-12	-14	·	i	0
O=C(N/N=C/c1ccc(OC(F)F)cc1OC(F)F)c1ccc(Br)cc1	-10	2	6	-20	2	-8	i	-4
O=C(Nc1nccs1)[C@@H]1CCCN1S(=O)(=O)c1ccc(Cl)cc1	·	3	-1	-7	-13	22	·	·
COc1ccccc1CNC(=O)c1sccc1-c1ccccc1	-2	-2	-4	-1	·	18	i	-6
Clc1ccc(OCc2nn3c(-c4ccco4)nnc3s2)cc1	-2	2	0	-1	-2	·	i	-1
CCN(CC)c1ccc(/C=N/N2CCOCC2)c(O)c1	-6	-2	2	-11	7	-136	i	1
COc1cccc(C(=O)NC23CC4CC(CC(C4)C2)C3)c1	6	-5	-1	1	-11	10	i	-10
O=C(O)c1ccccc1C(=O)NCc1ccc2c(c1)OCO2	8	0	4	-18	18	-6	i	0
CC(=O)OC1C([N+]2(C)CCCCC2)C[C@H]2C3CC[C@H]4C[C@H](OC(C)=O)C([N+]5(C)CCCCC5)CC4(C)[C@H]3CCC12C (stereo partly drawn)	·	0	-2	-20	7	0	i	·
COCCNC(=S)N(CCc1c(C)[nH]c2ccc(F)cc12)Cc1cccs1	-14	-6	-9	·	9	15	i	14
COc1ccccc1CNC(=O)C1CCN(S(=O)(=O)c2ccc3c(c2)NC(=O)CO3)CC1	15	4	5	-1	15	-10	i	-2
CC(C)CC(CO)N1CCN(C(=O)c2ccc(Cl)c(Cl)c2)CCC1=O (stereo not drawn)	·	3	2	2	-13	8	i	·
COc1ccc(C2=NOC(C(=O)Nc3ccc(C)cc3)C2)cc1OC (stereo not drawn)	-5	-1	-3	-3	·	21	·	-4
CN(C)CCCn1c(NC(=O)C2CCCCC2)nc2ccccc21	1	-9	-2	-20	-7	-10	i	-5
C=CCNC(C(=O)Nc1cccc(OC)c1)c1ccccc1 (stereo not drawn)	10	-5	-6	·	-2	-15	i	-4
Cc1ccc(NS(=O)(=O)c2ccccc2)c2c1CC(C)(C)O2	4	-5	1	-20	-5	21	i	4
Cc1ccc(CC2S/C(=C(/C#N)C(=O)NCc3ccco3)N(c3ccccc3)C2=O)cc1 (stereo not drawn)	11	-7	6	-12	5	·	i	-4

The list goes on:
SMILES	PABP FP inh	MT1-MMP act inh	MT1-MMP act inh RFP	UUG fidelity	CSC inhib	HIV Env fusion	Rce1 inhib	eIF4H FP inh	others
O=C(NCC1CCCO1)C1CCN(S(=O)(=O)c2cccc3nonc23)CC1 (stereo not drawn)	-5	-6	-3	-7	5	·	i	-5
Cc1ccc(-n2cnn(-c3ccc([N+](=O)[O-])cc3[N+](=O)[O-])c2=O)cc1	-10	7	-1	0	9	-23	i	-6
COc1ccc(CSc2nnc(NC(C)=O)s2)cc1[N+](=O)[O-]	37	-1	5	·	·	-4	·	10
O=C(CCC1CCCCC1)NCCS(=O)(=O)N1CCN(c2ccc(F)cc2)CC1	·	2	-8	·	5	-1	i	·
COc1ccc2nc(SCC(=O)Nc3ccccc3C)[nH]c2c1	-4	-3	-4	-18	·	5	i	-5
CC1CCCCN1C(=O)Nc1ccccc1Cl (stereo not drawn)	-2	0	1	-10	-11	-6	i	7
COc1ccc(-c2csc3ncn(-c4cccc(C)c4)c(=O)c23)cc1OC	7	0	2	-1	10	28	i	-2
CCCCn1nc2cc(C(=O)NCC3CC3)ccc2c1OCC	-2	0	2	-10	-8	-347	i	-4
CCOC(=O)c1c(C)[nH]sc1=S	-6	1	0	-30	·	·	i	2
CCc1ccccc1-n1ncc(C(=O)Nc2ccccc2OC)c1C	1	-3	-2	0	-4	-38	i	-14
COc1cccc(OC)c1OCCOCCn1cnc2ccccc2c1=O	-6	0	-2	-21	-14	1	i	-8
Cc1ccc(NC(=O)N2CCCn3c(SCC(=O)c4ccccc4)nnc32)cc1	-6	1	-6	-6	5	-2	i	-8
COc1ccc(NC(=O)C(c2ccc(C)cc2)N(C)C(=O)c2cnccn2)cc1 (stereo not drawn)	1	-2	-2	-3	·	·	·	6
CC(=O)NC(CCCN1C(=O)c2ccccc2C1=O)c1nnn(C)n1 (stereo not drawn)	-2	3	4	·	-2	·	i	-5
Cc1ccc(S(=O)(=O)Oc2ccc3ccc(O)cc3c2)cc1	-2	2	3	-7	24	12	i	-11
CCOC(=O)N1CCN(S(=O)(=O)c2ccc(C)cc2)C1	2	1	1	·	-16	-5	i	-9
CC(C)CCNC(=O)C1CCN(S(=O)(=O)c2ccc3nc4c(c(C(=O)O)c3c2)CCCCC4)CC1	2	-2	0	-8	-3	-1	i	-8
CCn1cc(CN2CCC(n3nccc3NC(=O)c3cccc(F)c3)CC2)c(C)n1	0	5	3	3	-17	-9	i	2
COc1ccc(CCNC(=O)c2cnc(Cl)c(Cl)c2)cc1	-16	-1	1	-4	-1	12	i	-2
Cc1ccc(S(=O)(=O)c2cc3c(=O)n4ccccc4nc3n(C)c2=N)cc1	15	1	2	-11	-20	-38	i	14
Cc1ccc(C(=O)NNC(=O)CNc2cccc(Cl)c2)cc1	0	0	4	·	4	1	i	-8
CCN(CC)c1ccc(C(=O)NNC(=O)Cn2c(=O)cnc3ccccc32)cc1	·	-2	1	-2	·	-45	·	·
CCOc1cc(C2NC(=O)NC(c3ccccc3)=C2C(C)=O)ccc1OC(C)=O (stereo not drawn)	-5	-2	0	-6	-1	8	i	-6
Cc1c(Cl)cccc1NC(=S)NCc1ccccc1	·	-2	-8	-12	-13	-37	i	·
C/C=C/C=C/C(=O)OCC(=O)Nc1ccc(Cl)cc1	-4	3	-2	-12	·	3	i	1

(listing goes on)
SMILES	PABP FP inh	MT1-MMP act inh	MT1-MMP act inh RFP	UUG fidelity	CSC inhib	HIV Env fusion	Rce1 inhib	eIF4H FP inh	others
Cc1cc2nccc(-c3cccnc3)n2n1	-16	3	0	·	-12	0	i	0
CCOc1ccc2nc3c(cc2c1)CN(CCCO)C(=NCCOC)S3	8	1	1	-1	-16	·	i	-3
CCn1cc(C(=O)O)c(=O)c2cc(F)c(N3CCN(C(=S)Nc4ccc(OC)cc4)CC3)cc21	2	-7	-2	·	·	16	i	4
NS(=O)(=O)c1ccc(CNC(=O)c2cc(-c3cccnc3)nc3ccc(Br)cc23)cc1	-11	·	·	13	-7	-2	i	-1
COc1ccc(NC(=S)Nc2ccc3nc(C)c(C)nc3c2)cc1	-1	-1	2	-34	4	-13	i	3
COc1ccc(NC(=O)N2CCCC2C(=O)NCC2CCCCC2)cc1 (stereo not drawn)	11	-2	-1	-10	13	-2	·	49
O=C(N/N=C/c1ccc(Cl)cc1)c1cc2c(s1)-c1ccccc1CC2	-7	-9	-11	·	38	·	i	-4
O=C(/C=C/c1cc(Br)ccc1F)OCC(=O)N1CCCC1	·	3	2	-26	·	-12	·	·
O=C(Nc1ccccc1Br)c1ccc(N2CCCC2=O)cc1	·	7	-5	-31	13	-56	·	·
NS(=O)(=O)c1ccc(CCN2C(=O)CCC2=O)cc1	-9	4	0	-18	-12	-6	i	-15
CCOc1ccc(N(CC(=O)N2CCC(Cc3ccccc3)CC2)S(C)(=O)=O)cc1	-6	9	-17	8	-5	22	i	6
O=C(CCC(=O)c1cccs1)NCc1ccccc1	-1	0	4	-4	-13	-3	i	-1
COc1ccc(OC)c(/C=C2\Oc3cc(OCC(=O)N4CC(O)C[C@H]4C(=O)O)ccc3C2=O)c1 (stereo partly drawn)	-1	-11	8	-12	-13	·	i	1
COC(=O)[C@H]1[C@H](c2ccccc2)[C@H](C(=O)OC)O[C@H]1c1ccccc1	·	0	-3	7	1	2	i	·
CCCn1c(SCC(=O)c2ccc3c(c2)OCCO3)nnc1-c1ccco1	1	-4	1	-6	-2	-38	i	6
O=C(Nc1ccc(S(=O)(=O)NC2=NCCCCC2)cc1)c1ccc(Cl)cc1Cl	·	-6	-17	3	9	?	i	·
O=C(Nc1ccccc1C(=O)NCCCN1CCOCC1)c1ccc(Cl)cc1	-4	-3	-1	-18	-10	8	i	3
CC1CCCN(C(=O)C2CCN(CC(C)c3ccccc3)CC2)C1 (stereo not drawn)	-9	4	5	-4	9	·	i	0
CC(C(=O)NCc1ccccn1)c1ccc([N+](=O)[O-])cc1 (stereo not drawn)	4	5	-2	·	-3	-17	i	2
Cc1ccc(OCCCC(=O)Nc2ccc(Cl)c(S(=O)(=O)N3CCOCC3)c2)cc1	·	-4	-30	16	0	15	·	·
CCC(=O)O[C@]1(C(=O)CCl)[C@@H](C)C[C@H]2[C@@H]3CCC4=CC(=O)C=C[C@]4(C)[C@@]3(F)[C@@H](O)C[C@@]21C	18	-1	-3	-1	-15	i	i	6
Cc1nnc(SCC(=O)Nc2sc3c(c2C(N)=O)CCCC3)[nH]c1=O	12	-1	2	·	-9	-293	i	1
CCc1ccc(NC(=O)Cn2nnc(C(=O)NCc3cccs3)c2N)cc1	58	4	8	·	-1	1	i	4	eIF4H FP inh retest=-30;PABP FP inh retest=30
Cc1cccn2c(=O)c(C=C(C#N)C#N)c(N3CCN(c4cccc(Cl)c4)CC3)nc12	3	-7	-4	-11	25	4	i	20
O=C(CNC(=O)c1ccco1)NCC(=O)OCc1cccc(C(=O)Oc2ccccc2)c1	-5	0	6	14	-3	·	i	-8

(further entries)
SMILES	PABP FP inh	MT1-MMP act inh	MT1-MMP act inh RFP	UUG fidelity	CSC inhib	HIV Env fusion	Rce1 inhib	eIF4H FP inh	others
CNc1nc(C23CC4CC(CC(C4)C2)C3)cs1	-4	-1	1	·	0	11	i	-8
CCN1CCN(C(c2cccs2)C(C)NC(=O)c2ccco2)CC1 (stereo not drawn)	-7	-4	4	·	-9	-35	i	2
COc1ccc(CCNCc2cc(C)n(-c3ccc(OC)cc3)c2C)cc1	-2	1	3	6	20	-2	i	7
Cc1cc(NC(=O)CSc2nc(Cc3ccccc3)c(C)[nH]2)no1	29	-1	-6	-13	-8	2	·	3
O=C(c1ccc(Cl)nc1)N1CCN(S(=O)(=O)c2ccccc2)CC1	2	6	-1	-9	-14	9	i	1
C/C(=N\OCC(=O)Nc1nc2ccccc2s1)c1ccccc1	-3	4	4	·	4	1	i	-7

An excerpt (hit frequency here may not be typical).
